Arbovirus inh: blocks arbovirus infection. arbovirus infection cell-based antiviral screen. inhibition, % at 10 µM. hit rate 0.37% among 200,000. AID 1251;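 active means inhibition from about 30%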;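 further: bluetongue infection of BSR cells; cell survival read as ATP light after 72 h; 0% = infected wells without compound and 100% = uninfected wells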
RecA intein inh: Mtb RecA intein splicing inhibition | P9WHJ3 | cell-free RecA intein splicing, fluorescence | inhibition, %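 (about 9 µM by stock and volumes)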 | hit rate 0.75% among 290,000 | AID 2221; in the data active means inhibition above about 30%; inconclusive means no clear call, values can overlap the other calls;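 further: 0% = vehicle wells and 100% = reference inhibitor control wells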
Target sequence (P9WHJ3 whole entry, looked up): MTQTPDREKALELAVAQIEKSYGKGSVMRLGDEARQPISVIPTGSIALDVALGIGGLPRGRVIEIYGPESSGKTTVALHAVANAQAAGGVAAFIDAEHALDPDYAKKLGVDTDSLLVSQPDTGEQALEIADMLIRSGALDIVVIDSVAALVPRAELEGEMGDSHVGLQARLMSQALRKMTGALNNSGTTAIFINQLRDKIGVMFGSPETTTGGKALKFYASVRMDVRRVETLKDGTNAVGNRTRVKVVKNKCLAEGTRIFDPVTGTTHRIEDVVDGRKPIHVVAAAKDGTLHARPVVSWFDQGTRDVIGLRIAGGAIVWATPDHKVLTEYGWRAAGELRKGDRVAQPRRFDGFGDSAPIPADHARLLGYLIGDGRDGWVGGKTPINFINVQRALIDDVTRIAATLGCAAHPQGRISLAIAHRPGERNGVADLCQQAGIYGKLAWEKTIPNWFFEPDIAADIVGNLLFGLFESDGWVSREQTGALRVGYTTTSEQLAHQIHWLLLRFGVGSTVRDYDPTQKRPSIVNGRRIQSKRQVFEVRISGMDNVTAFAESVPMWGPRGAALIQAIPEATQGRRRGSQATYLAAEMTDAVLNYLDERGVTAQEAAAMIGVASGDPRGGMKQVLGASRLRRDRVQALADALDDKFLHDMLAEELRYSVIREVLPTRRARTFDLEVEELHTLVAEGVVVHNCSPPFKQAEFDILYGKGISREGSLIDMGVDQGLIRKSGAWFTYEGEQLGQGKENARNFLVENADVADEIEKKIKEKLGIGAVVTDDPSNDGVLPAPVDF
Mtb betalactam: beta-lactam sensitization of Mtb H37Rv; M. tuberculosis H37Rv growth with meropenem, percent inhibition; hits of this screen are not shown here; AID 434955; inhibition, % at 25 µM; hit rate 0.27% among 330,000;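 active means about 74% or more and at least 40 points above the plate without the antibiotic, then above 30% in a dose series; inconclusive means first-round hits that could not be retested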;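 further: growth measured after seven days incubation then overnight dye step; 0% = bacteria only wells and 100% = bacteria with antibiotic; twin plates without the antibiotic show which effects depend on it; some results filed as inactive read as strong as hits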
Mtb growth: M. tuberculosis H37Rv growth inhibitors, H37Rv strain (AID 1626); M. tuberculosis H37Rv growth inhibition; higher % means a stronger effect; one-dose inhibition, % at 10 µM; IC50 in µM for titrated hits; hit rate 0.95% among 220,000;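 active means confirmed in a dose series; inconclusive means inhibition above 80% but not taken into the dose series; inactive means below 80% or under 30% at every dose of the series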;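 further: bacteria incubated seven days before Alamar blue readout; 0% = bacteria only wells and 100% = bacteria with antibiotic wells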
YopH PTP inh: blocks Yersinia enterocolitica YopH tyrosine phosphatase; AID 898; fluorescence Ex485/Em525; inhibition, %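 (about 10 µM by stock and volumes)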; hit rate 0.16% among 140,000;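 active means inhibition of 50% or more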;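 further: controls were vehicle for no effect and minimum signal wells for full effect; inactives centre near -20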
Arbovirus inh repeat: second read-out of Arbovirus inh, no call of its own (marks repeat the call); inhibition, %; measured here: 10K subset replicate screen; many hits read low in the repeat;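 first of two repeat runs on a subset; 0% = infected and 100% = uninfected wells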
An asterisk follows results filed as active; u = inconclusive; x = no result given. Only part of the results is shown, so the mix of outcomes need not match the whole.

SMILES	Arbovirus inh	RecA intein inh	Mtb betalactam	Mtb growth	YopH PTP inh	others
CCCCCCCC(=O)NC(Nc1ccc(S(N)(=O)=O)cc1)C(Cl)(Cl)Cl (centres undefined)	-27	-3.7	-3	-10%	-31
CCOC(=O)CSc1n[nH]c(=S)s1	x	-2.8	54	-4%	x
CC1(C)Cc2cccc(OCC(=O)O)c2O1	3	-4.4	3	0%	14
CCOC(=O)c1cc2c(=O)n3ccccc3nc2n(Cc2ccco2)c1=NC(=O)c1ccccc1OC	-2	-301	-1	-3%	x
COc1ccc(-n2c(O)c(C=NCCN(C)C)c(=O)[nH]c2=O)cc1	x	0.6	-2	-3%	x
CCN1CCN(CC2COc3ccccc3O2)CC1 (centres undefined)	x	-2.7	-6	x	x
CCN1C(=O)/C(=C2\SC(=S)N(c3c(C)n(C)n(-c4ccccc4)c3=O)C2=O)c2ccccc21	3	-1.8	-5	x	-50
CCOC(=O)C1C(=O)NC(N2CCc3ccccc32)=NC1c1ccccc1 (centres undefined)	-1	1.7	2	-2%	-14
O=C(COC(=O)C1(c2ccc(F)cc2)CCCC1)NCc1ccc2c(c1)OCO2	-1	5.1	16	8%	-13
O=C(OCCN1CCOCC1)c1ccc2c(c1)OCCO2	1	-3.7	-9	1%	0

Next part (5 carried over from the part before).
SMILES	Arbovirus inh	RecA intein inh	Mtb betalactam	Mtb growth	YopH PTP inh	others
CCN1CCN(CC2COc3ccccc3O2)CC1 (centres undefined)	x	-2.7	-6	x	x
CCN1C(=O)/C(=C2\SC(=S)N(c3c(C)n(C)n(-c4ccccc4)c3=O)C2=O)c2ccccc21	3	-1.8	-5	x	-50
CCOC(=O)C1C(=O)NC(N2CCc3ccccc32)=NC1c1ccccc1 (centres undefined)	-1	1.7	2	-2%	-14
O=C(COC(=O)C1(c2ccc(F)cc2)CCCC1)NCc1ccc2c(c1)OCO2	-1	5.1	16	8%	-13
O=C(OCCN1CCOCC1)c1ccc2c(c1)OCCO2	1	-3.7	-9	1%	0
Cc1cccc2sc(NC(=O)CNS(=O)(=O)c3ccc(Br)s3)nc12	0	x	1	2%	1
COc1ccccc1-c1nc2cc3ccccc3cc2nc1-c1ccccc1OC	-9	6.4	6	-17%	-25
CC1=Nc2cc(C(=O)NCCCOC(C)C)ccc2Sc2ccccc21	-9	4.0	2	7%	x
COc1ccc(N(CCC#N)S(=O)(=O)c2cccc3nsnc23)cc1	2	3.0	-2	6%	-14
COc1ccc(/C=C(\C)C(=O)c2c(C)cc(C)[nH]c2=O)cc1	x	-4.2	0	x	x
Cc1ccc(C2/C(=C(/O)c3ccc(Br)cc3)C(=O)C(=O)N2Cc2ccco2)o1 (centres undefined)	0	1.7	3	-2%	4	Arbovirus inh repeat=8
Cc1cc(C(=O)OCC(=O)N2CCN(c3ccccc3)CC2)c2ccccc2n1	-2	1.7	87	12%	-29
COc1cc2c(c(OC)c1OC)-c1c(cc3c(c1OC)OCO3)C1OC2[C@@H](C)[C@H]1C (some centres undefined)	x	3.7	-2	-1%	x
N#C/C(=C\c1ccc(-c2ccccc2)cc1)c1nc(-c2ccco2)cs1	-26	-2.5	-1	-2%	-7
CC(=O)Nc1ccc(S(=O)(=O)N2CCN(c3cccc(C)c3C)CC2)cc1	-13	5.3	-2	3%	-14	Arbovirus inh repeat=-11
CC(=O)Nc1ccc(C(=O)CSc2nccc(=O)[nH]2)cc1	6	-3.9	-5	5%	x
N#C/C(=C\c1coc2ccccc2c1=O)C(N)=S	8	0.4	-5	-2%	x
CCn1c(SCC(=O)N/N=C(\C)c2ccncc2)nnc1-c1ccccc1	8	0.9	-2	6%	x
O=C(c1ccc(NS(=O)(=O)c2cccc(C(F)(F)F)c2)cc1)N1CCCC1	x	-1.2	0	x	x
Cn1cc([N+](=O)[O-])c(C(=O)N2CCCCCC2)n1	x	-2.5	-9	x	x
CCn1c(SCC(=O)Nc2nnc(C)s2)nc2c(c1=O)SC(C)C2 (centres undefined)	13	11	-4	-3%	-28	Arbovirus inh repeat=7
COC(=O)c1ccc(C(=O)OC)c(NC(=O)CN(C)Cc2ccccc2)c1	-2	0.2	-1	2%	-28
CCOc1ccc(S(=O)(=O)n2ccc(C)n2)c2ccccc12	2	x	3	-7%	-30
Cc1ccc(NC(=O)CN(C)S(=O)(=O)c2cnc[nH]2)c(C)c1	x	1.1	-2	x	x
Cc1c(NC(=S)NC(=O)c2ccc(-c3ccc(Cl)cc3)o2)cccc1C(=O)O	4	-0.8	-9	6%	x
CCCNC(=O)c1ccccc1NC(=O)C1=CSCCO1	x	-6.5	5	x	x
COCCCNC(=O)c1cn(Cc2c(F)cccc2Cl)nn1	-7	1.7	8	-10%	-23
Cn1ccnc1C1CCCCN1Cc1nc(-c2ccc(Cl)cc2)no1 (centres undefined)	2	-0.4	-6	-6%	x
Cc1cc(NC(=O)/C(C#N)=C/c2ccc(-c3ccc(SC(F)F)cc3)o2)n(-c2ccccc2)n1	-8	-38	-2	14%	0
O=C(NCCO)/C(=C\c1ccc2c(c1)OCO2)NC(=O)c1ccc(Br)cc1	-2	-3.7	4	-2%	-22
CCCN1CCN(C(=O)CCNC(=O)Cn2cnc3ccccc3c2=O)CC1	x	2.2	1	x	x
Cc1ccc(C(C)C)cc1OCCCCN1CCCC1	-22	-0.9	3	-5%	-16
C/C=C/c1ccc(OCC(=O)Nc2ccc(OC)c(OC)c2)c(OC)c1	-2	2.1	52	7%	x
CC(Sc1nc2ccccc2s1)C(=O)N(C)Cc1ccccc1 (centres undefined)	x	7.5	3	x	x
CCCCn1nnc(NC(=O)COc2ccc(Cl)c(C)c2)n1	-1	-0.4	97	74%	-20
Nc1cc(=O)[nH]c(SCC(=O)N2CCCc3ccccc32)n1	-5	-2.8	-5	0%	-14
CC1(C)CC(=O)C(C=NCc2ccc3c(c2)OCO3)=C(O)C1	0	-1.0	2	-8%	-10
COCCn1c(SCC(=O)NC2CCCCC2)nnc1-c1ccco1	x	-1.5	-11	x	x
Cn1nc(C(=O)Nc2ccc(S(=O)(=O)N3CCCCC3)cc2)ccc1=O	-1	-0.8	5	1%	1
CC(C)n1c(=O)[nH][nH]c1=S	x	-3.4	-2	-4%	x
CCc1ccc(NS(=O)(=O)c2cc3[nH]c(=O)c(=O)[nH]c3cc2C)cc1	x	-1.0	8	x	x
O=C(NCc1cccnc1)c1cc(S(=O)(=O)N2CCOCC2)c(Cl)cc1Cl	x	-2.7	-8	x	x
Cc1cccc(NC(=O)CN2C(=O)/C(=C3\SC(=S)N(CC4CCCO4)C3=O)c3ccccc32)c1 (centres undefined)	x	0.7	4	x	x
Cn1c(=O)c2ncn(CC(=O)N=Nc3c(O)[nH]c4ccccc34)c2n(C)c1=O	19	3.5	-11	-5%	x
N=c1n(Cc2ccccc2)c2ccccc2n1CC(O)COc1ccccc1 (centres undefined)	-41	5.8	13	9%	-27
Cc1ccc(S(=O)(=O)N2CCCc3ccccc32)cc1C	x	0.2	-3	x	x
COc1cc(NC(=O)c2cc3ccccc3o2)c(OC)cc1Br	2	1.0	-7	1%	-47
CC(C)C(c1nnnn1Cc1cccs1)N1CCN(c2ccccc2)CC1 (centres undefined)	6	-0.5	-1	7%	-19
COc1ccccc1NC(=O)c1c([N+](=O)[O-])cnn1C	x	-1.6	-5	x	x
O=C(CNC(=O)c1ccc(Br)cc1)NC1=NCCS1	x	3.4	6	x	x
COc1cc(/C=C/C(=O)NC2CCCCC2)cc(OC)c1OC	x	2.3	6	x	x
CC(Oc1cccc(Cl)c1)C(=O)Nc1ccc(N2CCOCC2)cc1N1CCOCC1 (centres undefined)	x	-1.0	4	x	x
CCc1ccc(S(=O)(=O)Nc2c(C)nn(C)c2C)cc1	13	3.0	-8	-4%	-8
c1ccc(-c2nn[nH]n2)nc1	x	-0.2	-1	-11%	x
O=C(O)/C=C\C(=O)Nc1ccc(OCc2ccccc2)cc1	-2	4.3	19	64%	x

Overlap with the part before: 2 compounds; new compounds follow.
SMILES	Arbovirus inh	RecA intein inh	Mtb betalactam	Mtb growth	YopH PTP inh	others
c1ccc(-c2nn[nH]n2)nc1	x	-0.2	-1	-11%	x
O=C(O)/C=C\C(=O)Nc1ccc(OCc2ccccc2)cc1	-2	4.3	19	64%	x
Cc1ccc(/C(O)=C/C(=O)C(=O)NNC(=O)C(O)(c2ccccc2)c2ccccc2)cc1	-1	8.3	-1	-8%	-24
CCN(CC(=O)NCc1ccc(F)cc1)CC(O)COCc1cccc(OC)c1 (centres undefined)	6	0.1	-6	4%	-36
CSc1nccc(Oc2cncc(Cl)c2)n1	4	0.3	-6	-4%	-22
Cc1nc(CN2CCC(c3ccccc3)CC2)cc(=O)[nH]1	7	13	-1	4%	x
COc1ccccc1NC(CC(=O)c1ccccc1)C(=O)OCC(=O)c1ccc(Br)cc1 (centres undefined)	6	2.9	98	14µM*	-40
CSc1ccccc1NC(=O)CN1CCCCC1	14	-3.6	-4	-13%	x
COc1cc(/C=c2/sc3nc(-c4ccccc4)c(-c4ccccc4)n3c2=O)cc(OC)c1OC	-5	-1.6	1	2%	-28
COc1ccc(N2CCN(Cc3nc4c(c(=O)[nH]c(=O)n4C)n3CC(C)=O)CC2)cc1	3	-2.1	3	0%	7
Cc1cccc(NS(=O)(=O)c2cc(C(=O)N3CCCCCC3)ccc2C)c1	x	6.5	u	x	x
O=C(O)COCC(=O)N1CCc2c([nH]c3ccccc23)C1C(F)(F)F (centres undefined)	x	-0.8	-2	x	x

Gathered by group: the compounds so far containing a thiophene ring, fused or not (2)
SMILES	Arbovirus inh	RecA intein inh	Mtb betalactam	Mtb growth	YopH PTP inh	others
Cc1cccc2sc(NC(=O)CNS(=O)(=O)c3ccc(Br)s3)nc12	0	x	1	2%	1
CC(C)C(c1nnnn1Cc1cccs1)N1CCN(c2ccccc2)CC1 (centres undefined)	6	-0.5	-1	7%	-19

(list continues)
SMILES	Arbovirus inh	RecA intein inh	Mtb betalactam	Mtb growth	YopH PTP inh	others
COc1cccc(CNC(=O)CN(c2ccc(C(C)C)cc2)S(=O)(=O)c2c(C)noc2C)c1	x	-5.1	-1	x	x
COc1ccc(CN(CCC(c2ccccc2)c2ccc(OC(C)C)cc2)C(=O)CCl)cc1OC (centres undefined)	-41	83*	99	9%	-8
C[C@H](NC(N)=O)C(=O)OCC(=O)Nc1ccc(OC(F)F)cc1	5	-0.3	10	-1%	x
c1ccc2c(CN3CCCCCCC3)c[nH]c2c1	-21	-3.0	-10	x	7	Arbovirus inh repeat=-9
O=C(O)c1c(NC(=O)c2cccc3ccccc23)sc2c1CCC2	55*	6.4	9	-6%	-28
